Assay outcomes deposited in PubChem BioAssay by National Center for Advancing Translational Sciences (NCATS).
VACV Venus inh = inhibitors of vaccinia virus (Venus reporter); Vaccinia virus Venus reporter expression, fluorescence; hit rate 0.46% among 330,000; Potency, µM (titrated, usually from 36.5 µM), without a hit: at the top dose activity change, negative = inhibition, hits mostly inhibitors; AID 720580; active means well fitted inhibition curve with a large enough effect; inconclusive means small, poorly fitted or top-dose-only effect; inactive means no such curve, though single readings can be large or run the other way; tested in A549 cells; also: nearly all actives have a fitted effect of over 30% in size; inactives centre near -10
VACV mCherry inh = inhibitors of vaccinia virus infection (mCherry reporter signal). Vaccinia virus mCherry reporter infection, fluorescence; about a quarter of the inactives have no number. Potency, µM (series often up to 36.5 µM), for the others: at the highest dose activity change, negative = inhibition, hits mostly inhibitors. hit rate 0.63% among 310,000. AID 720579; active = well fitted inhibition curve with a large enough effect; inconclusive = small, poorly fitted or top-dose-only effect; inactive = no such curve, though single readings can be large or run the other way; tested in A549 cells; also: nearly all actives have a fitted effect of over 35% in size; inactives centre near -10
* marks the source's active call; other numbers are inactive results; i = inactive; ? = inconclusive; . = not tested or not shown; & = joins results of further samples; [ ] = another dose, or the depositor's remark. % is scaled to controls: 0 for no effect and ±100 for the full control effect; potency is read from the fitted curve at half-maximal effect.

Screens in order: VACV Venus inh	VACV mCherry inh
CCCCC(=O)Nc1nnc(SCC(=O)NCC2CCCO2)s1 (stereo not given)
→ -2%	i
Cc1oc2cc(O)cc(O)c2c(=O)c1-c1ccc2c(c1)OCCCO2
→ -20%	-7%
CC(C)CN1CCc2nc(N3CCN(c4ncccn4)CC3)ncc2C1
→ -5%	-6%
CCOC(=O)c1ccc(NC(=S)N2CCC(O)CC2)cc1
→ 6%	i
COc1ccc([C@]2(C(C)C)ON(c3ccccc3C(F)(F)F)C2=O)cc1
→ ?	?
COc1ccc(Cl)cc1N1CCN(CCNC(=O)Nc2ccccc2C)CC1
→ -14%	-2%
O=C(CN(c1ccc([N+](=O)[O-])cc1)S(=O)(=O)c1ccccc1)N1CCCCC1
→ -9%	-12%
Cc1ccccc1C(=O)NCC(=O)NNC(=O)CCN1CCN(c2ccccc2)CC1
→ -1%	-6%
COc1cc(/C=N/NC(=O)c2cccc3ccccc23)ccc1OCC(N)=O
→ 0%	-11%
O=C1CC=Nc2ccc([N+](=O)[O-])cc21
→ -15%	?
CC(C)[C@H](NC(=O)N1c2ccccc2NC(=O)[C@@H]1C(C)C)C(=O)N1CCC[C@H]1C(=O)O
→ -12%	-14%
Cc1ccc(NC(=O)Nc2cn(CC(C)C)c(=O)c3ccccc23)cc1N(C)C
→ -6%	-5%
O=C(CNC(=O)c1ccccc1O)N/N=C/c1cc(Br)ccc1OC(=O)/C=C/c1ccco1
→ -22%	?
COc1ccc(OCC(=O)Nc2cccc(C(=O)Nc3ccccc3C(=O)O)c2)cc1
→ -3%	-13%
Cc1cccc(NC(=O)CSc2nc(COc3ccccc3)nc3ccccc23)c1C
→ -4%	-11%
O=C(CSc1nnc(SCc2cccc3ccccc23)s1)N/N=C/c1c[nH]c2ccccc12
→ ?	?
Cc1oc2ccc(O)c(CN(C)C)c2c1C(=O)c1ccccc1
→ -23%	-21%
Cc1oc(-c2cccc(Cl)c2)nc1CN1CCC(C(=O)N2CCN(c3ccccn3)CC2)CC1
→ -23%	-27%
CC(C)NC(=O)/C(C#N)=C/c1ccc(N(C)C)o1
→ -12%	-6%
Cc1cc(C)cc(OC(=O)c2snnc2C)c1
→ -5%	-5%
CCCCCn1c(=O)c(C(=O)OCC)c(O)c2ccccc21
→ -18%	.
CCCCN(CCCNC(=O)C1CCCN(S(=O)(=O)CC)C1)Cc1ccccc1 (stereo not given)
→ -2%	.
Cc1cc(Nc2cccc(F)c2)n2nc(-c3ccco3)nc2n1
→ -9%	-9%
O=C(c1ccccc1)c1ccccc1C(=O)c1ccccc1
→ -12%&-20%	-14%
CC(C)Oc1ccc(N2CC(C(=O)OCC(=O)NCc3ccccc3)CC2=O)cc1 (stereo not given)
→ 3%	-6%
CCOc1ccc(C2C(C(=O)OC)=CN(CCOC)C=C2C(=O)OC)cc1
→ -8%	i
Cc1cccc(NC(=O)NNC(=O)COc2ccc(Cl)cc2)c1
→ -9%	i
COc1ccc(CNC(=O)CCSCc2cccc(Cl)c2)c(OC)c1
→ -19%	i
COc1ccc(NC(=O)CC2CCCC2)cc1OC
→ 13%	-8%
Cc1cccc(CNc2nc(-c3ccc(C(=O)N(C)C)cc3)nc3ccccc23)c1
→ 11%	6%
O=C(/C=C/c1ccc([N+](=O)[O-])cc1)N1CCN(Cc2ccccc2)CC1
→ -8%	-24%
O=C(Oc1ccc(-c2nnco2)cc1)N1CCOCC1
→ 4%	-5%
Cc1cccc(C)c1OCC(=O)NNC(=O)Nc1ccc(Cl)cc1
→ -12%	-13%
CC(C)(CCc1ccccn1)C(=O)CCCc1ccccn1
→ 4%	i
Cc1ccc(NC(=O)Cn2c(=O)n(Cc3ccco3)c(=O)c3sc4ccccc4c32)cc1C
→ -13%	-15%
CCc1ccccc1NC(=O)Cn1ccn(Cc2ccccc2)c(=O)c1=O
→ -3%	-4%
COc1ccc(NC(=O)C2CCCN2S(=O)(=O)c2cccs2)c([N+](=O)[O-])c1 (stereo not given)
→ 4%	-11%
CC1CCCN(C(=O)Cn2ncc3c([nH]c4ccccc43)c2=O)C1 (stereo not given)
→ -10%	-9%
COc1ccccc1NC(=O)CSc1nnc(N)s1
→ 13%	1%
Cc1ccc([C@H]2N[C@]3(CCCN(CC4CCCCC4)C3=O)[C@H]3C(=O)N(C)C(=O)[C@@H]23)cc1
→ -13%	-28%
CCc1ccc2occ(CC(=O)Nc3c(C(=O)c4ccc(F)cc4)oc4ccccc34)c2c1
→ -16%	-9%
CCc1ccc(CN2CCCC(CNC(=O)c3cccc(OC)c3OC)C2)cc1 (stereo not given)
→ -9%	i
Cc1ccc(C(C)C)c(OCC(=O)Nc2ccc3c(c2)nc(CN2CCCC2)n3C)c1
→ ?	.
Fc1cccc(Cc2c(-c3cccc(Br)c3)nc3c(Cl)cc(C(F)(F)F)cn23)c1
→ 7%	i
CNc1ccc(Cl)cc1C(N)=O
→ -18%	?
Cc1ccc(-c2csc(-c3nc(-c4ccc(Br)s4)cs3)n2)cc1
→ -5%	-2%
COC(=O)c1[nH]c2ccc(C)cc2c1NC(=O)C(C)N1CCN(C2CCCCC2)CC1 (stereo not given)
→ -16%	.
Cc1ccc(NC(=O)C(Cc2ccccc2)NS(=O)(=O)c2cccs2)cc1Cl (stereo not given)
→ -5%	-14%
COc1ccccc1CNC(=O)CCCCn1c(=O)c2ccccc2n(CC(=O)Nc2cccc(Cl)c2)c1=O
→ -15%	-28%
COc1ccccc1N1CCN(C(=O)C2CCCN(S(=O)(=O)c3ccc4c(c3)oc(=O)n4C)C2)CC1 (stereo not given)
→ -14%&-28%	-10%&-4%
COc1ccc(-c2csc(NC(=O)CSc3ccc(Br)cc3)n2)c(OC)c1
→ -12%	-6%
COc1ccc(NC(=O)C[C@H]2C(=O)N(c3ccc(OC)cc3)C[C@@H]2c2ccc(Br)cc2)cc1
→ -21%	-21%
COc1cc(OC)cc(C(=O)Nc2cccc(NC(=O)c3cc(OC)cc(OC)c3)n2)c1
→ -3%	-11%
CC(=O)c1cnc(-c2ccccc2)s1
→ -7%	-9%
O=c1c2ccccc2nc(-c2ccccc2)n1-n1cccc1
→ -17%	0%
COc1ccccc1C1=CN(Cc2ccccc2)CCC1=O
→ -3%	i
Cc1ccc(C(=O)O)cc1S(=O)(=O)Nc1ccccc1C(=O)NC1CC1
→ -12%	i
COc1ccc([C@H]2CC(=O)C=C(c3ccnc4ccc(Cl)cc34)C2)cc1
→ ?	-17%
COc1ccc(OC2C(=O)N(Cc3ccc(F)cc3)C2c2cc(OC)c(OC)c(OC)c2)cc1 (stereo not given)
→ -3%	i
CCC(=O)Nc1nc(=S)ss1
→ -2%	.

Remaining list, next part
Screens in order: VACV Venus inh	VACV mCherry inh
COc1ccc(-c2ncc(CN3CCC(CO)(Cc4cccc(OC)c4)CC3)cn2)cc1
→ -16%	?
CCOC(=O)c1c(S(=O)(=O)NCC(=O)Nc2cc(C)ccc2OC)c(C)n(C)c1C
→ -14%	-12%
CCN(CC)C(=S)SCC(=O)c1ccc(F)cc1
→ -12%	-28%
CCCS(=O)(=O)NC(=O)C1(C)CCN(C(=O)c2ccc3ccccc3c2)C1 (stereo not given)
→ -1%	5%
COc1cccc(OC)c1OCC(O)CN1CCN(c2ccc(F)cc2)CC1 (stereo not given)
→ -4%	-19%
O=C(CN(Cc1cccs1)C(=O)CSc1nnc(COc2ccccc2)o1)NC1CCCCC1
→ -11%	.
O=C(COc1ccccc1F)NNC(=O)c1ccc(N2CCCCC2)c([N+](=O)[O-])c1
→ -6%	i
COc1cccc(NC(=O)c2oc3ccccc3c2NC(=O)C23CC4CC(CC(C4)C2)C3)c1
→ -18%	-16%
Cc1ccc(CSc2nc(-c3cccs3)ccc2C#N)cc1
→ -8%	-9%
O=C(NCc1cccc(C(F)(F)F)c1)c1ccc2c(c1)OCCO2
→ -12%	-17%
CS(=O)(=O)N1CCN(c2ccnc3cc(Cl)ccc23)CC1
→ -14%	i
CNc1ccc(-c2cccc(CO)c2)cn1
→ -16%	i
COc1ccc(C(C)(C)C)cc1NC(=O)C1CC(=O)N(C2CCCC2)C1 (stereo not given)
→ -7%	i
Cc1cc2ncc(C(N)=O)cn2n1
→ -9%	-4%
CCc1cccc(CC)c1NC(=O)COC(=O)CC1c2ccccc2CCN1S(=O)(=O)c1ccccc1 (stereo not given)
→ ?	-23%
COc1ccc(-c2nc3c4ccccc4ccn3c2CC2CCCCC2)cc1OC
→ -9%	13%
CCC(C)Cn1c(S(=O)(=O)O)nc2ccccc21 (stereo not given)
→ -7%	-12%
COC(=O)C1=CNC=C(C(=O)OC)C1c1ccc(Cl)cc1
→ -16%	-22%
COc1nc(OC)nc(Oc2ccc(Cl)cc2[N+](=O)[O-])n1
→ -4%	i
Cc1csc2nc(O)c(C(=O)NCCC3=CCCCC3)c(=O)n12
→ -9%	-19%
CC(=O)Nc1ccc(S(=O)(=O)N2CCCN(S(=O)(=O)c3ccc(NC(C)=O)cc3)CC2)cc1
→ -3%	-13%
COc1ccc(CNS(=O)(=O)NCc2ccc(C)cc2)cc1
→ -18%	i
CCC1=NC(c2ccc(OC)cc2)N(O)C1(C)C (stereo not given)
→ -3%	.
O=C(c1ccc2c(c1)OCO2)N1CCN(c2ccccn2)CC1
→ -14%	-18%
C=CCn1c(SCC(=O)NC2CCCc3ccccc32)nnc1-c1ccncc1 (stereo not given)
→ -5%	-15%
Cc1cc(CNC(=O)Cc2ccccc2)c2ccccc2n1
→ -6%	i
N/C(=N\OC(=O)CC1CCCCC1)c1ccc(Cl)cc1
→ 1%	-11%
COc1ccc(-n2c(O)c(C(C)=NCC3CCCO3)c(=O)[nH]c2=O)cc1 (stereo not given)
→ -16%	-4%
COc1ccc(CCNc2ncnc3c2c(-c2ccccc2)cn3-c2ccc(F)cc2)cc1OC
→ -9%	-19%
CC(C)(C)C(O)(CC#CCN1CCCC1)c1ccccc1 (stereo not given)
→ -10%	-14%

Later entries
compound	VACV Venus inh	VACV mCherry inh
CCOC(=O)c1cnn(Cc2ccc(C)cc2)c1N	-18%	-18%
COc1ccc(N2CCN(Cc3nc4c(c(=O)n(C)c(=O)n4C)n3C(C)C)CC2)cc1	-25%	-25%
Cc1cnc(C(=O)OCC(=O)N2CCC(C)CC2)cn1	-4%	i
Cn1c(N)c(C(=O)CSc2nnnn2-c2ccccc2)c(=O)n(C)c1=O	0%[7.34 µM]	5%[7.34 µM]
COc1ccc(Cl)cc1N1CC(c2nc3ccccc3[nH]2)CC1=O (stereo not given)	-4%	-11%
O=S(=O)(c1ccc(OCC(O)CN2CCC(Cc3ccccc3)CC2)cc1)N1CCOCC1 (stereo not given)	-17%	i
CO/N=C1\CN(c2nc3c(cc2F)c(=O)c(C(=O)O)cn3C2CC2)CC1CN (stereo not given)	-13%	i
COc1ccccc1C(CNC(=O)c1cccc(S(=O)(=O)Nc2ccc(C)cc2)c1)N(C)C (stereo not given)	-24%	i
O=C(c1cc2c(c(-c3cccc(-c4ccc(F)cc4)c3)n1)[C@H](CCO)N(C(=O)c1ccc3c(c1)OCO3)C2)N1CCOCC1	20%	-21%
CCC(C(=O)Nc1ccccc1Cl)n1nc(C)c2c(C)n(-c3ccccc3)nc2c1=O (stereo not given)	-5%	i
Cc1ccc(C)c(Cn2c3ccccc3c3cnn(CC(=O)NCC(C)c4ccccc4)c(=O)c32)c1 (stereo not given)	-27%	-17%
Cc1cc(NC(=O)CN2C(=O)NC(C)(CCc3ccccc3)C2=O)no1 (stereo not given)	-6%	i

Fetched one by one from above, 3 records:
compound	VACV Venus inh	VACV mCherry inh
Cc1csc2nc(O)c(C(=O)NCCC3=CCCCC3)c(=O)n12	-9%	-19%
COc1ccc(CNC(=O)CCSCc2cccc(Cl)c2)c(OC)c1	-19%	i
O=C(c1ccc2c(c1)OCO2)N1CCN(c2ccccn2)CC1	-14%	-18%

Given as labelled records: part of the list above
O=S(=O)(c1ccc(OCC(O)CN2CCC(Cc3ccccc3)CC2)cc1)N1CCOCC1 (stereo not given)
  VACV Venus inh: -17% | VACV mCherry inh: i
CO/N=C1\CN(c2nc3c(cc2F)c(=O)c(C(=O)O)cn3C2CC2)CC1CN (stereo not given)
  VACV Venus inh: -13% | VACV mCherry inh: i
COc1ccccc1C(CNC(=O)c1cccc(S(=O)(=O)Nc2ccc(C)cc2)c1)N(C)C (stereo not given)
  VACV Venus inh: -24% | VACV mCherry inh: i
O=C(c1cc2c(c(-c3cccc(-c4ccc(F)cc4)c3)n1)[C@H](CCO)N(C(=O)c1ccc3c(c1)OCO3)C2)N1CCOCC1
  VACV Venus inh: 20% | VACV mCherry inh: -21%

More structures follow.
compound	VACV Venus inh	VACV mCherry inh
Cc1ccccc1NC(=S)NC1(C)CCS(=O)(=O)C1 (stereo not given)	-2%	-11%
Cc1[nH][nH]c(=O)c1C	-6%	i
O=C(COc1ccc(F)cc1)Nc1ccc2nc(SCC(=O)N3CCOCC3)sc2c1	-18%	-14%
Cc1cc(SCC(=O)OCC(=O)c2c(N)n(C)c(=O)n(C)c2=O)c(C)cc1Br	-5%	i
O=C(O)c1ccc(/C=N/NC(=O)c2cc(-c3ccc4c5c(cccc35)CC4)n[nH]2)cc1	-15%	-14%
COc1cccc(NC(=O)N2CCCC(C(=O)NC3CCCCC3C)C2)c1 (stereo not given)	-10%	-10%
CCOc1ccc(/C=N/NC(=O)c2[nH]ncc2Br)c(O)c1	?	1.3µM*
CC1CCc2cc(F)ccc2N1C(=O)CSc1nnc2c(n1)[nH]c1ccccc12 (stereo not given)	-17%	-7%
